ugtP null kill = compounds lethal to S. aureus RN4220 ugtP deletion mutant; OD600 growth, 16 h; some inactives read as strong as hits; growth inhibition, % (concentration not given with the values); 0.54% of 330,000 active;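 active = z-score under -3 and OD600 up to 0.15 on both plates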;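 note: plate controls were untreated wells for no effect and antibiotic for full effect; wells of about 80 µL received 100 nL stock; the first replicate is given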
BJeLR viability = BJeLR cell viability loss | BJeLR (HRASV12) viability, CellTiter-Glo ATP luminescence, 48 h; reference of the scale not given here | inhibition, % (test concentration not listed) | 0.17% of 300,000 active;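 active = replicate mean above 50%; inconclusive = above 50% but judged a plate artefact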;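 note: 50 nL library stock added to about 25 µL; numbers are from one replicate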
PrP 5UTR inh = inhibition of PrP 5' UTR reporter expression; cell-based PrP 5' UTR mRNA reporter, plate reader; inhibition, % (concentration not given with the values); 0.35% of 340,000 active;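 active = every replicate at 50% or more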;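 note: 0 = median of the neutral control wells; tested in H4 reporter cells; numbers are from one replicate; inactives centre near -14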
Sa RN4220 lethal = S. aureus RN4220 growth inhibition; AID 1259311; OD600, 16 h; inhibition, % (concentration not given with the values); 0.33% of 330,000 active;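 active = z-score of -3 or lower and OD600 up to 0.18 on both plates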;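 note: plate controls were untreated cells for no effect and reference antibiotic for full effect; stock transfer was 100 nL into about 80 µL; one replicate is shown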
Autofluor counter = compound fluorescence in toxin protease inhibitor counterscreen | compound autofluorescence counterscreen, microsphere flow cytometry; stronger effect = higher value | fluorescence intensity (test concentration not listed) | 3.1% of 360,000 active;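 active = at least 3 SD above the mean of all compounds, about 16000 in these data; inconclusive = too few beads counted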;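 note: 100 nL of 1 mM stock went into each well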
Mtb hypoxia rep = inhibitors of hypoxia-regulated fluorescent reporter in Mycobacterium tuberculosis. M. tuberculosis hypoxia-regulated fluorescent reporter, fluorescence. fluorescence inhibition, % (concentration not given with the values). 0.1% of 300,000 active;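 active = 35 to 45% if threefold the growth effect, above 45% if 1.5-fold the growth effect; inactive = the rest, general growth blockers included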;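 note: wells of about 50 µL received 100 nL stock; 0% = vehicle wells and 100% = reference inhibitor wells; whole bacteria with a GFP reporter of the hypoxia response; strong numbers were not always called active; many hits fall short of the cut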
Mtb hypoxia rep growth = second read-out of Mtb hypoxia rep, no call of its own (marks repeat the call); growth inhibition, %; measured here: M. tuberculosis growth (absorbance);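 0% = vehicle and 100% = reference antibiotic; read after six days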
The depositor's hits bear a star; ? = inconclusive; . = not tested or not shown.

SMILES	ugtP null kill	BJeLR viability	PrP 5UTR inh	Sa RN4220 lethal	Autofluor counter	Mtb hypoxia rep	Mtb hypoxia rep growth
CCC(=O)c1ccc(OCC(=O)Nc2nc(C)cs2)cc1	-10	.	-44	3.8	3999	2	11
O=C(NC(=S)NC1C2CC3CC(C2)CC1C3)C12CC3CC(CC(C3)C1)C2 (stereo not given)	17	-6	-18	-5.9	2080	4	7
COc1ccccc1OCCC(=O)OCC(=O)Nc1ccc(Br)cc1F	15	-12	-11	11	3774	12	10
O=C(CCS(=O)(=O)c1cccs1)N1CCCC1	-1	5	-32	1.8	3603	-1	-4
CCCSc1nnc(-c2ccccc2NC(=O)CC)c(=O)[nH]1	9	2	4	4.0	6562	3	0
Cc1nc2ccc(NC(=O)c3cccnc3)cc2s1	2	-4	-15	6.9	6585	14	1
CCn1cc([N+](=O)[O-])c(C(=O)Nc2ccc(Br)cn2)n1	6	-3	-25	4.3	8101	1	-7
CCOC(=O)c1c(C)[nH]c(C)c1S(=O)(=O)NCC1CCN(Cc2cccc(Cl)c2)CC1	-4	1	-7	-2.7	8213	-7	-6
COC(=O)c1ccccc1NC(=O)C/C(C)=N/NC(=O)Cc1ccc(Cl)cc1	.	-5	-13	.	5491	.	.
CC(C)NC(=O)/C(C#N)=C\c1ccc(N(C)C)o1	2	-1	-6	5.5	4842	24	3
CCCCn1c(C)cc2cc(O)ccc21	21	.	-18	-2.6	3269	.	.
Cc1nnc(NC(=O)C2CCN(C(=O)c3ccco3)CC2)s1	19	-1	-12	-1.6	3077	2	-6
O=C(Cc1ccc([N+](=O)[O-])cc1)N1N=C(c2ccncc2)CC1(O)C(F)(F)F (stereo not given)	6	7	-30	2.5	4461	15	3
O=C(Nc1nnc(-c2ccccn2)o1)c1cccc(Br)c1	-17	-1	-12	13	2446	-8	7
CC(C)(C)NC(=O)CN(C(=O)C(=O)Nc1ccc2c(c1)OCCO2)N1CCOCC1	10	1	-17	3.0	5794	-5	-12
COc1cc(/C=C/c2ccc3cccc(O)c3n2)cc(Cl)c1OC	-1	44	-49	11	3907	3	1
COc1ccc(-c2cc(C(F)F)n3ncc(C(=O)n4ccnc4C)c3n2)cc1	0	47	-16	3.7	2143	4	1
COC(=O)c1cccc(-n2c(C)cc(C=O)c2C)c1C	0	2	-10	0.8	2259	10	17
COc1ccccc1N(CC(=O)Nc1ccccc1)S(=O)(=O)c1cccs1	3	.	-9	1.3	2866	3	-3
Cc1ccnc(SC2CC(=O)N(c3ccc(F)cc3)C2=O)n1 (stereo not given)	-2	-3	-29	0.3	4249	2	10
Cn1c(NCCO)nc2c1c(=O)n(Cc1ccc(F)cc1)c(=O)n2C	4	-4	7	1.9	3733	9	6
CC(=O)NC(=NOCc1ccccc1Cl)c1nonc1NC(C)=O	1	.	.	2.8	.	8	4
COC(=O)c1ccc2[nH]c([C@H](C)O)c([C@H](C)O)c2c1	.	9	-15	.	4566	.	.
N#CCc1nn(-c2ccc(Cl)cc2)c(N)c1C#N	9	-9	-5	1.2	3101	11	0
O=C(Nc1ccc2ccccc2c1)c1ccccc1O	-1	-2	-57	5.6	3934	0	10
Cc1cc(=O)oc2c(C(=O)/C=C/c3ccccc3)c(O)ccc12	-5	2	-6	5.2	2729	.	.
CCC(C(=O)NCc1ccco1)n1nc(C)c2c(C)n(-c3ccc(C)cc3)nc2c1=O (stereo not given)	6	5	-7	-1.4	?	4	4
Fc1ccc2cnc(-c3ccccc3)cc2c1	-9	.	-158	7.3	3961	4	4
CC1(C)CC(=O)C=C(Nc2cccc(F)c2)C1	16	-10	-17	1.1	3926	1	3
CCc1ccc(N2Cc3ccccc3C2)cc1	7	1	-57	2.2	3367	3	8
NC(N)=N/N=C/c1ccc(OCc2ccccc2Cl)cc1	.	9	-11	.	6225	.	.
CCC1Cc2c(nc(N)c3c(N)nc(N4CCCCC4)c(C#N)c23)O1 (stereo not given)	7	4	-13	6.8	4541	8	11
O=c1c(-c2ccccc2)c(O)c2c(n1-c1ccccc1)CCCC2	12	-2	-12	5.4	2634	9	4
O=C(Nc1ccc(NC(=S)NC(=O)C(c2ccccc2)c2ccccc2)cc1)c1ccccc1	35	3	-15	-6.3	4526	.	.
Cc1cc(C)c(S(=O)(=O)N2CCCOC2CNC(=O)C(=O)NCCC2=CCCCC2)c(C)c1 (stereo not given)	-5	-10	-3	3.6	1949	-2	-5
Cc1c(C(=O)O)sc2nc(/C=C/c3cccc(O)c3)[nH]c(=O)c12	14	-3	.	0.4	3451	4	5
COc1ccccc1N(CC(O)CN(c1ccccc1)S(C)(=O)=O)S(=O)(=O)c1ccccc1 (stereo not given)	8	-1	0	7.7	3765	.	.
Cc1c(Cl)c([N+](=O)[O-])nn1CCCC(=O)Nc1c(Cl)cccc1Cl	19	-4	7	14	8534	8	3
CC(=O)C(C)Oc1ccc2c3c(c(=O)oc2c1)CCCC3 (stereo not given)	8	5	-48	2.3	4182	7	6
O=C(Cn1nc(Cl)nc1Cl)c1ccc(F)cc1	3	5	-20	0.9	3536	3	10

Rewritten in markdown: entries from further up.
| Molecule | ugtP null kill | BJeLR viability | PrP 5UTR inh | Sa RN4220 lethal | Autofluor counter | Mtb hypoxia rep | Mtb hypoxia rep growth |
| --- | --- | --- | --- | --- | --- | --- | --- |
| Cc1c(Cl)c([N+](=O)[O-])nn1CCCC(=O)Nc1c(Cl)cccc1Cl | 19 | -4 | 7 | 14 | 8534 | 8 | 3 |
| O=C(Nc1ccc2ccccc2c1)c1ccccc1O | -1 | -2 | -57 | 5.6 | 3934 | 0 | 10 |
| N#CCc1nn(-c2ccc(Cl)cc2)c(N)c1C#N | 9 | -9 | -5 | 1.2 | 3101 | 11 | 0 |
| COc1ccccc1N(CC(O)CN(c1ccccc1)S(C)(=O)=O)S(=O)(=O)c1ccccc1 (stereo not given) | 8 | -1 | 0 | 7.7 | 3765 | . | . |
| CCC1Cc2c(nc(N)c3c(N)nc(N4CCCCC4)c(C#N)c23)O1 (stereo not given) | 7 | 4 | -13 | 6.8 | 4541 | 8 | 11 |
| CC1(C)CC(=O)C=C(Nc2cccc(F)c2)C1 | 16 | -10 | -17 | 1.1 | 3926 | 1 | 3 |
| Cc1cc(=O)oc2c(C(=O)/C=C/c3ccccc3)c(O)ccc12 | -5 | 2 | -6 | 5.2 | 2729 | . | . |

(cont.)
SMILES	ugtP null kill	BJeLR viability	PrP 5UTR inh	Sa RN4220 lethal	Autofluor counter	Mtb hypoxia rep	Mtb hypoxia rep growth
CCOC(=O)C1CCN(C(=O)C2CCN(S(=O)(=O)c3cc(Cl)ccc3Cl)CC2)CC1	10	0	-7	2.8	11390	4	6
COc1cccc(C2c3[nH]c4ccccc4c3C[C@H]3C(=O)N(CCCO)CC(=O)N23)c1OC (stereo not given in full)	4	1	-13	-0.1	3937	8	6
C=CCN(CC=C)C(=O)C1CC(=O)N(c2ccc(Br)cc2)C1 (stereo not given)	-2	-1	-11	2.3	3192	.	.
COC(=O)c1c(-c2snnc2C)n[nH]c1C	1	-1	5	2.0	3786	17	12
O=C(NCCN1CCCCC1)Nc1ccccc1Cl	1	-2	-23	-0.6	3621	5	-3
CCCc1c(C(=O)NN=C/C(C)=C/c2ccco2)nnn1-c1nonc1N	-8	.	.	8.9	.	-10	-5
CN1CCN(CC(=O)c2ccccc2F)CC1	17	1	-14	-1.1	3233	10	8
Cc1cc(C)cc(N(C(=O)CCC(=O)Nc2ccccn2)C(C(=O)NC(C)C)c2ccc(O)cc2)c1 (stereo not given)	6	0	.	9.1	.	1	-7
Cc1oc(-c2ccccc2Cl)nc1CS(=O)CC(=O)NCCc1ccccc1 (stereo not given)	-7	7	-13	-1.3	5206	-3	-1
Nc1ncnc2nc(SCC(=O)Nc3ccccc3F)[nH]c12	-1	2	-26	0.9	3498	11	8
S=c1nc2ccccc2c2nc(-c3ccccc3Br)[nH]n12	-10	-4	-18	7.5	3710	1	-3
COC(=O)N/N=C/c1cccnc1	.	25	-15	.	2466	.	.
COc1ccc(C(=O)N/N=C(\C)Cn2cnc([N+](=O)[O-])n2)cc1	.	-26	4	.	2201	.	.
CC(C)(CO)CN1CCC(n2nccc2NC(=O)C2CCCC2)CC1	14	-1	-5	2.0	5424	10	-2
COc1cc2ncnc(NCc3ccco3)c2cc1OC	-2	-6	-17	8.4	4507	13	6
Cc1cccc(-n2c(/C=C/c3ccc([N+](=O)[O-])o3)nc3ccccc3c2=O)c1	99*	43	-13	69	10243	5	8
O=C(Nc1ccc(C(=O)N2CCC(O)(c3ccc(Cl)c(C(F)(F)F)c3)CC2)cc1)c1ccc(Br)o1	-19	.	-8	14	3535	3	9
CC(C)NC(=O)Cn1cc(C(=O)c2ccccc2F)c2ccccc21	2	-5	10	-1.4	2457	.	.
CC1Cc2nc(SCC(=O)N3CCCC3)n(C)c(=O)c2S1 (stereo not given)	3	2	-24	9.2	6312	1	0
CCOC(=O)c1c(-c2ccc(C)cc2)csc1NC(=O)CCSc1nnc2ccccn12	-16	7	-22	3.0	2143	8	3
CNC(=O)CSc1nnc(-c2cccnc2)n1CCc1ccccc1	.	5	-10	.	11203	.	.
CCOc1cc(N2CCOCC2)c(OCC)cc1NC(=O)CSc1ccccc1C(=O)O	8	.	-12	4.1	3030	-2	-4
CC1CCN(S(=O)(=O)c2cccc(C(N)=O)c2)CC1	5	-8	-17	2.2	9117	7	14
C/C(=N/NC(=O)CN1CCN(Cc2ccccc2Cl)CC1)c1ccncc1	.	-3	4	.	2368	.	.
CCCCN(C)CCOc1ccccc1OCC	-7	-6	-20	-0.3	2036	6	-5
C=Cn1ccnc1P(=S)(c1ccc2c(c1)c1ccccc1n2CC)c1nccn1C=C	-17	4	-15	-8.6	7165	-2	1
Cc1nnc(NN=Cc2cccs2)[nH]c1=O	-1	.	.	2.7	.	9	4
CCN1C(=O)C2(C(C#N)=C(N)Oc3cc(C)oc(=O)c32)c2ccccc21 (stereo not given)	4	-27	-7	4.8	2507	5	6
CCn1c(CC(=O)Nc2ccccc2)n[nH]c1=S	4	-2	-5	1.9	4296	-5	-10
CC1CCCCN1CCNC(=O)c1ccc2c(c1)N(Cc1ccccc1)C(=O)c1ccccc1S2(=O)=O (stereo not given)	-6	1	-9	0.4	6047	-3	16
CC12C=CC(=O)C=C1CCC1C2CCC2(C)C(C(=O)CO)CCC12 (stereo not given)	9	.	-18	8.4	4537	9	8
CC(/C=N/NC(=O)CSc1nc2ccccc2n1C)=C\c1ccco1	.	6	-10	.	2439	.	.
CCOCCCNC(=O)CCCn1nc(C)n2c(cc3sccc32)c1=O	-2	-1	-22	-5.7	4408	5	7
CC1(C)C(=O)Nc2ccccc2N1C(=O)COc1ncnc2c(Cl)cc(Cl)cc12	-6	-5	-36	5.2	9505	8	7
COc1ccc(Cl)cc1NC(=O)COC(=O)C(CC(C)C)N1C(=O)C2CC=CCC2C1=O (stereo not given)	-5	-2	1	4.9	2344	13	4
Cc1ccc(C(=O)NC2CCCC2)cc1S(=O)(=O)N1CCCCC1	5	9	-5	4.2	6427	0	-3
CCOC1C(=O)NC(=O)N1Cc1ccccc1 (stereo not given)	5	-8	-17	3.2	4202	5	2
Cc1ccc(C(=O)N2CCN(c3ccccc3)CC2)cc1NC(=O)c1ccco1	3	-6	-11	-0.5	5396	16	10
COc1ccc(CCNC(=O)COc2ccc3c(C)cc(=O)oc3c2)cc1	1	.	-9	3.0	3994	2	11
COc1ccc2c(CC(=O)Nc3nc(C)cs3)coc2c1	-3	1	-28	1.8	4505	-8	-1
C[N+]1(CCC(=O)c2ccccc2)CCCCC1	8	-1	-21	2.2	2237	7	4
O=C(O)COc1ccccc1/C=N/NC(=O)CNC(=O)c1ccco1	.	2	-5	.	6197	.	.
O=C(NCC1CCCO1)C(c1ccncc1)N(Cc1cccs1)C(=O)Cn1nnc(-c2ccc(F)cc2)n1 (stereo not given)	-3	-6	-27	6.1	4165	1	2
COc1cc(C(C(=O)Nc2c(C)cccc2C)N(C)C(=O)c2ccc(-n3cnnn3)cc2)ccc1O (stereo not given)	-2	2	-1	4.2	3826	2	-15
CCOP(=O)(OCC)/C(=N/OC(=O)c1ccc(OC)cc1)C(N)=O	.	21	-11	.	3418	.	.
CN1CCN(C(=O)c2cn(-c3ccccc3)nc2-c2cccs2)CC1	2	2	-7	2.9	2332	-5	3
COc1ccc(S(=O)(=O)N2Cc3ccccc3CC2C(=O)Nc2ccc3c(c2)OCO3)cc1 (stereo not given)	0	-6	-45	2.8	4232	.	.
O=C(O)CCN=C1CCc2ccccc2N1	17	-7	.	2.7	.	3	-9
Fc1ccc(CCN2CCN=C2Nc2ccccc2)cc1	7	.	-1	4.1	3761	21	5

High-throughput results deposited in PubChem by several laboratories.
